Mtb growth: Mycobacterium tuberculosis H37Rv growth inhibition, cell based, confirmatory dose response (AID 1949); most inactive calls were filed without a number and no value below 0 was filed; one-dose inhibition, % at 10 µg/mL; IC50 in µg/mL for titrated hits; actives 1.6% (n = 100,000); M. tuberculosis H37Rv growth inhibition;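 active = confirmed in a dose series; inconclusive = about 50% or more but not retested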;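 also: bacteria grown 7 days with compound before Alamar blue readout; 0% = untreated bacteria and 100% = reference antibiotic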
An asterisk follows results filed as active.

Results for CCOc1ccc(NC(=O)CN(Cc2ccc(C)cc2)S(=O)(=O)c2ccc(Cl)cc2)cc1 ?
Mtb growth: 0%

Results for O=C(NC(=S)Nc1ccc2c3c(cccc13)CC2)c1ccccc1 ?
Mtb growth: inactive

Results for CCOC(=O)c1c(C)oc2ccc(N(C(C)=O)S(=O)(=O)c3cc([N+](=O)[O-])ccc3C)cc12 ?
Mtb growth: inactive

What do the screens show for `CCCCOc1c(Br)cc(CNC)cc1OCC`?
Mtb growth: 30%

What do the screens show for `CCCN1CCN(C(=S)Nc2ccccc2C(F)(F)F)CC1`?
Mtb growth: inactive

Results for Cc1ccc(OCC(=O)n2ccc(C)n2)c(Br)c1 ?
Mtb growth: inactive

Results for CCOC(=O)C1=C(C)NC(=S)NC1c1cccs1 (stereo not given) ?
Mtb growth: inactive

What do the screens show for `COC(=O)C1=C(C)N=C2SCC(=O)N2C1c1ccc(N(C)C)cc1` (stereo not given)?
Mtb growth: inactive

Results for Nc1nc2ccccc2n1CCOc1cccc2ccccc12 ?
Mtb growth: 5µg/mL*

What do the screens show for `O=c1c2cc(I)ccc2nc(/C=C/c2cccnc2)n1-c1ccccc1[N+](=O)[O-]`?
Mtb growth: 2%

Results for O=C(Nc1ccc(O)cc1)c1ccc(Cl)c(Cl)c1 ?
Mtb growth: inactive

How did Cc1ccc(C)c(NC(=O)c2ccc(OC(=O)c3ccco3)cc2)c1 do in these assays?
Mtb growth: inactive

How did CC(C)NC(=O)c1ccccc1Oc1ccccc1 do in these assays?
Mtb growth: 0%

Results for Cc1[nH]c2ccccc2c1-c1csc(-c2ccncc2)n1 ?
Mtb growth: inactive

How did COc1ccc(C)cc1S(=O)(=O)N1CCCC(C(=O)NCc2ccccc2)C1 (stereo not given) do in these assays?
Mtb growth: 2%

How did CCCOc1ccc(-c2csc3ncn(Cc4ccccc4F)c(=O)c23)cc1 do in these assays?
Mtb growth: inactive

What do the screens show for `CSc1cccc(NC(=O)Nc2ccccc2)c1`?
Mtb growth: inactive

What do the screens show for `Fc1ccc(-c2nnc(-c3ccc4c(c3)OCO4)o2)cc1`?
Mtb growth: 5%

Results for Cc1cccc(CN(CC(N)=O)S(=O)(=O)c2ccc(Cl)cc2)c1 ?
Mtb growth: inactive

What do the screens show for `Cc1ccc(C(=O)Nc2ccc(CN3CCOCC3)cc2)c(C)c1`?
Mtb growth: inactive

What do the screens show for `CC(C)OC(=O)c1c(NC(=O)C2CC=CCC2C(=O)O)sc2c1CCCCC2` (stereo not given)?
Mtb growth: 4%

Results for COc1ccc(Cl)cc1NS(=O)(=O)c1ccc(Cl)s1 ?
Mtb growth: inactive

What do the screens show for `COC(=O)c1ccc(NC(=O)c2ccc(-c3ccc(Cl)cc3)o2)cc1`?
Mtb growth: 22%

How did Cc1ccc2nc(-c3ccncc3)cc(C(=O)NC3=NCCS3)c2c1 do in these assays?
Mtb growth: inactive

What do the screens show for `COc1ccc([N+](=O)[O-])cc1CSc1nnc(NC(=O)c2ccccc2Cl)s1`?
Mtb growth: inactive

What do the screens show for `Cc1sc(-n2c(C)c3c(C)nnc(C)c3c2C)nc1-c1ccccc1`?
Mtb growth: 44%

What do the screens show for `S=C(Nc1ccc(OCc2ccccc2)cc1)Nc1ccc(Br)cc1Cl`?
Mtb growth: 9%

How did COc1ccc(Cl)cc1Nc1ncnc2ccc(Br)cc12 do in these assays?
Mtb growth: inactive

How did CC(=O)c1cccc(NC(=O)CCC(=O)OCC(=O)c2ccc(C)c(C)c2)c1 do in these assays?
Mtb growth: inactive

What do the screens show for `CC1(c2ccccc2)CC(C)(C)N2C(=O)C(=O)c3cccc1c32` (stereo not given)?
Mtb growth: inactive

Gathered by group: the compounds so far containing an aryl methoxy group (four)
How did COc1ccc(C)cc1S(=O)(=O)N1CCCC(C(=O)NCc2ccccc2)C1 (stereo not given) do in these assays?
Mtb growth: 2%

Results for COc1ccc(Cl)cc1NS(=O)(=O)c1ccc(Cl)s1 ?
Mtb growth: inactive

What do the screens show for `COc1ccc([N+](=O)[O-])cc1CSc1nnc(NC(=O)c2ccccc2Cl)s1`?
Mtb growth: inactive

How did COc1ccc(Cl)cc1Nc1ncnc2ccc(Br)cc12 do in these assays?
Mtb growth: inactive

More structures follow.
What do the screens show for `O=C(COc1ccc(S(=O)(=O)Nc2ccc(F)cc2)cc1)NCc1ccccc1`?
Mtb growth: 3%

What do the screens show for `Cc1oc2c(c1C(=O)Nc1cccc(C(=O)O)c1)CCCC2`?
Mtb growth: inactive

How did CN1CCN(C(=O)CN(c2ccc(I)cc2)S(=O)(=O)c2ccccc2)CC1 do in these assays?
Mtb growth: inactive

How did COC(=O)CN(c1cccc(Cl)c1)S(=O)(=O)c1ccc(Cl)cc1 do in these assays?
Mtb growth: 1%

Results for CCn1c(SCC(=O)Nc2c(C)cc(Br)cc2C)nnc1-c1ccccc1C ?
Mtb growth: 1%

Results for COc1ccc(NC(=O)COc2ccc3ccccc3c2Br)c([N+](=O)[O-])c1 ?
Mtb growth: 7%

What do the screens show for `CCCC(=O)N(Cc1cc2cccc(C)c2[nH]c1=O)c1ccccc1C`?
Mtb growth: 1%

How did CN1CCN(CCCOc2ccc(Cl)cc2C(C)(C)C)CC1 do in these assays?
Mtb growth: inactive

What do the screens show for `O=c1n(S(=O)(=O)c2ccccc2)c2ccccc2n1S(=O)(=O)c1ccccc1`?
Mtb growth: 0%

What do the screens show for `COC(=O)c1cc(NC(=S)N2CCN(Cc3ccc4c(c3)OCO4)CC2)cc(C(=O)OC)c1`?
Mtb growth: inactive

What do the screens show for `CCn1nnc2sc3c(c2c1=O)CCC(C)C3` (stereo not given)?
Mtb growth: inactive

Results for O=C(O)c1ccc(CNC(=O)C(Cl)Cl)cc1 ?
Mtb growth: 1%

How did Cc1ccc(C(=O)Nc2sc3c(c2C(=O)N(C)C)CCC(C)C3)cc1 (stereo not given) do in these assays?
Mtb growth: inactive

Results for FC(F)(F)c1cc(-c2cccs2)nc(NCc2cccnc2)n1 ?
Mtb growth: 10%

Results for COC(=O)C1=C(C)NC(=S)NC1c1ccccc1OC (stereo not given) ?
Mtb growth: inactive

What do the screens show for `CCC(=O)c1ccc(OCC(O)CN2CCCCC2)cc1` (stereo not given)?
Mtb growth: inactive

What do the screens show for `CC(=O)Oc1cn(OC(C)=O)c2ccc(Br)cc12`?
Mtb growth: inconclusive

How did O=C(Nc1ccc(-c2nc3cc(Cl)ccc3o2)cc1)c1ccc([N+](=O)[O-])cc1 do in these assays?
Mtb growth: 3%

What do the screens show for `O=C(CN1CCOCC1)N1c2ccccc2C=Cc2ccccc21`?
Mtb growth: inactive

Results for S=C(Nc1ccccc1)N(CCCN1CCOCC1)Cc1ccccc1 ?
Mtb growth: inactive

How did O=C(CN1CCN(C(=O)c2ccco2)CC1)Nc1ccccc1 do in these assays?
Mtb growth: inactive

How did Cc1cc(NC(=O)CN2C(=O)c3cccc4cccc2c34)ccc1Br do in these assays?
Mtb growth: 2%

Results for COc1ccc(-c2cc(C(F)(F)F)n3ncc(C(=O)Nc4cc(C)ccc4O)c3n2)cc1OC ?
Mtb growth: 5%

What do the screens show for `O=C(CSc1nc2ccccc2s1)c1ccc2c(c1)OCCO2`?
Mtb growth: inactive

Results for Cc1cc(=O)[nH]c(SCc2nc(-c3ccc(Cl)cc3)no2)n1 ?
Mtb growth: inactive

How did CC(C)(O)C#Cc1ccc(C(=O)N2CCC(Cc3ccccc3)CC2)cc1 do in these assays?
Mtb growth: inactive

What do the screens show for `COc1ccc(CNC(=S)NCc2ccc(Cl)cc2)cc1OC`?
Mtb growth: 13%

How did Cc1cc(C)c(S(=O)(=O)N(C)CC(=O)N2CCN(c3cccc(Cl)c3)CC2)c(C)c1 do in these assays?
Mtb growth: 10%

Results for Cc1cccc(C(=O)Nc2nnc(C(C)C)s2)c1[N+](=O)[O-] ?
Mtb growth: 2%

What do the screens show for `Cc1ccc(C(=O)NC(=S)Nc2ccc(Cc3ccncc3)cc2)c(C)c1`?
Mtb growth: inactive

How did Cc1cc(OCC(=O)NCc2ccco2)c(C)cc1Br do in these assays?
Mtb growth: 3%

What do the screens show for `O=C(c1ccccc1)c1ccc(NC(=O)c2cccs2)c(NC(=O)c2cccs2)c1`?
Mtb growth: inactive

Results for CCCCC(=O)NCc1ccc(F)cc1 ?
Mtb growth: inactive

Results for COc1cccc2c1oc(=O)c1c(N)nc3c(c12)CC(C(C)(C)C)CC3 (stereo not given) ?
Mtb growth: inactive

Results for O=C(COc1ccc(Cl)cc1Cl)N1CCc2ccccc21 ?
Mtb growth: 3%

Results for CC(C)(C)Nc1nc(SCC(=O)Nc2ccccc2)nc(N2CCOCC2)n1 ?
Mtb growth: inactive

Results for COC(=O)NC1(C(F)(F)F)NC(=O)N(C2CCCCC2)C1=O (stereo not given) ?
Mtb growth: inactive

How did O=C(NCCc1ccncc1)Nc1cccc(F)c1 do in these assays?
Mtb growth: 2%

Results for COCCCNC(=O)c1c(NC(=O)c2cccs2)sc2c1CCCC2 ?
Mtb growth: inactive

What do the screens show for `CCCC1=C(C(=O)OCC)C(c2cccnc2)n2ncnc2N1` (stereo not given)?
Mtb growth: inactive

Results for Cc1ccc(CN(c2ccc(C(=O)Nc3ccccc3C(F)(F)F)cc2)S(C)(=O)=O)cc1 ?
Mtb growth: inactive

How did COc1cc(Cl)c(C)cc1NC(=O)C(C(C)C)N1C(=O)c2ccccc2C1=O (stereo not given) do in these assays?
Mtb growth: inactive

What do the screens show for `O=C(c1ccccc1Cl)N1CCOCC1`?
Mtb growth: 0%

Results for CCOC(=O)c1c(NC(=O)CSc2n[nH]c(-c3ccccc3)n2)sc(C(C)=O)c1C ?
Mtb growth: inactive

Results for CCn1c(SCC(=O)Nc2cc(C)c(C)cc2Br)nnc1-c1ccccc1 ?
Mtb growth: inactive

How did Cc1ccc(S(=O)(=O)N(CC(=O)Nc2ccccc2Cl)c2ccc(C)cc2C)cc1 do in these assays?
Mtb growth: inactive

How did Cn1c(O)c(N=NC(=O)COc2ccc(Cl)cc2Cl)c2ccccc21 do in these assays?
Mtb growth: inconclusive

What do the screens show for `Cc1ccc(S(=O)(=O)NNC(=O)c2cccs2)cc1`?
Mtb growth: inactive

How did Cc1cccnc1NC(=O)Nc1ccc([N+](=O)[O-])cc1 do in these assays?
Mtb growth: 5%

What do the screens show for `COc1ccc(C(=O)CCC(=O)OCC(=O)c2ccc(Cl)cc2)cc1`?
Mtb growth: 0%

What do the screens show for `CC1CN(C(=S)Nc2cccc(Cl)c2Cl)CC(C)O1` (stereo not given)?
Mtb growth: inactive

What do the screens show for `O=C(NCc1ccccn1)c1ccc(COc2cc(Cl)ccc2Cl)cc1`?
Mtb growth: inactive

Results for Cc1ccc(NS(=O)(=O)c2ccc(NC(=O)C(C)Oc3ccc(Cl)cc3Cl)cc2)c(C)c1 (stereo not given) ?
Mtb growth: 8%

What do the screens show for `CCOC(=O)c1ccc(NS(=O)(=O)CC)cc1`?
Mtb growth: inactive

What do the screens show for `CCN1CCN(c2ccc(NC(=O)c3cccc4c(Br)cccc34)cc2)CC1`?
Mtb growth: 1%

How did COc1ccc(S(=O)(=O)N(C)CC(=O)Nc2ccc(Cl)cc2)cc1OC do in these assays?
Mtb growth: 1%

How did CC1CCN(S(=O)(=O)c2ccc(C(C)C)cc2)CC1 do in these assays?
Mtb growth: inactive

How did O=C(NNC(=S)NCC1CCCO1)c1cc2c(s1)CCCCC2 (stereo not given) do in these assays?
Mtb growth: inactive

What do the screens show for `O=C(/C=C/c1ccc(Cl)cc1)c1ccc(NC(=O)c2cccnc2)cc1`?
Mtb growth: 0%

Results for CC(=O)Nc1nnc(SCC(=O)Nc2nccs2)s1 ?
Mtb growth: inactive

A draw from above in order of heavy-atom count, low to high.
What do the screens show for `CC1CN(C(=S)Nc2cccc(Cl)c2Cl)CC(C)O1` (stereo not given)?
Mtb growth: inactive

How did Cc1cccnc1NC(=O)Nc1ccc([N+](=O)[O-])cc1 do in these assays?
Mtb growth: 5%

How did Cn1c(O)c(N=NC(=O)COc2ccc(Cl)cc2Cl)c2ccccc21 do in these assays?
Mtb growth: inconclusive

How did COc1ccc(S(=O)(=O)N(C)CC(=O)Nc2ccc(Cl)cc2)cc1OC do in these assays?
Mtb growth: 1%

How did Cc1ccc(S(=O)(=O)N(CC(=O)Nc2ccccc2Cl)c2ccc(C)cc2C)cc1 do in these assays?
Mtb growth: inactive

Filtered by structure: the entries above containing an NH in an aromatic ring (4)
Results for Cc1[nH]c2ccccc2c1-c1csc(-c2ccncc2)n1 ?
Mtb growth: inactive

What do the screens show for `CCCC(=O)N(Cc1cc2cccc(C)c2[nH]c1=O)c1ccccc1C`?
Mtb growth: 1%

Results for Cc1cc(=O)[nH]c(SCc2nc(-c3ccc(Cl)cc3)no2)n1 ?
Mtb growth: inactive

Results for CCOC(=O)c1c(NC(=O)CSc2n[nH]c(-c3ccccc3)n2)sc(C(C)=O)c1C ?
Mtb growth: inactive

(further entries)
Results for COC(=O)c1ccc(C2C(C(=O)c3ccco3)=C(O)C(=O)N2Cc2ccco2)cc1 (stereo not given) ?
Mtb growth: inactive

What do the screens show for `O=C(CCCN1C(=O)c2ccccc2C1=O)OCc1ccccc1`?
Mtb growth: inactive

Results for CCc1cccc(C)c1NC(=O)CNS(=O)(=O)c1ccc(C)cc1 ?
Mtb growth: inactive

What do the screens show for `O=C1CC(c2ccccc2C(F)(F)F)c2ccccc2N1` (stereo not given)?
Mtb growth: 7%

Results for Cn1c(SCc2ccccc2Br)nnc1-c1ccccc1 ?
Mtb growth: 0%

Results for O=C(NC1CCCc2ccccc21)c1ccc(Cl)s1 (stereo not given) ?
Mtb growth: 9%

Results for Cc1nnc(NC(=O)C2(c3ccccc3)CCOCC2)s1 ?
Mtb growth: inactive

Results for O=C(Nc1ccc(-c2noc(-c3cccs3)n2)cc1)c1cccs1 ?
Mtb growth: 3%

How did CCCOC(=O)Nc1cc(OC)c(Cl)cc1OC do in these assays?
Mtb growth: 4%

How did O=S(=O)(c1cccc(-c2nnc(-c3ccccc3)o2)c1)N1CCOCC1 do in these assays?
Mtb growth: 3%

Results for Cc1ccccc1COc1ccc2c3c(c(=O)oc2c1)CCC3 ?
Mtb growth: inactive

How did O=C(COc1ccccc1Br)N1CCN(C(=O)c2ccco2)CC1 do in these assays?
Mtb growth: inactive

Results for CC(=O)OC1CC(C)(C)N(OC(C)=O)C(C)(C)C1 ?
Mtb growth: inactive

How did COc1cccc(CNCc2ccncc2)c1 do in these assays?
Mtb growth: inactive

Assay outcomes: PubChem, Southern Research Institute

These rows are one share of the data (hit frequency here may not be typical).
